AID504770 = growth inhibition of E. coli YBA685, primary screen, V. cholerae RctB inhibitors; E. coli YBA685 rctB-dependent plasmid, OD600 growth, 3 h; hits give low values; z-score (no concentration beside the values); 130,000 compounds, 0.27% hits;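 active means z-score under -2 on both plates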;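 further: wells of about 30 µL received 100 nL stock; score is relative to mean and SD of the test wells; the first replicate is given; strong numbers were not always called active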
CapD inh = Bacillus anthracis CapD inhibitors, primary screen, biochemical, fluorescence intensity | purified CapD enzyme, fluorescence intensity read-out; hits give low values; some hits fall short of the stated cut | z-score (no concentration beside the values) | 140,000 compounds, 0.23% hits;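 active means z-score under -4 in either of two replicates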;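 further: stock transfer was 100 nL into about 40 µL; score is relative to mean and spread of the plate; one replicate is shown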
* = called active by the depositor; i = inactive; nt = no result given; & = joins results of further samples; ! = not active in a repeat. An unsorted share of the library. Share with any hit: about 0.37%.

SMILES | AID504770 | CapD inh
COc1cc(OC)cc(C(=O)Nc2nnc(-c3ccccc3Cl)s2)c1 | -0.25 | i
Cc1sc2nc(CSCC(=O)OC(C)(C)C)[nH]c(=O)c2c1C | 1.8 | nt
CCCc1cc2c(=O)c(-c3nc(C)cs3)coc2cc1OC(C)=O | -0.65 | 0.91
Cc1cc(SCc2cccc(F)c2)c(Cl)cc1Cl | nt | -0.17
CCOC(=O)c1nc(-c2ccc(F)cc2)no1 | -0.9 | -0.11
CCCCCn1c(=O)[nH]c2cc(C(=O)N3CCN(c4cc(C)ccc4C)CC3)ccc2c1=O | -0.45 | -0.2
Cc1ccc(NC(=O)n2ccnc2)cc1NC(=O)n1ccnc1 | -0.7 | -0.16
CS(=O)(=O)OCC1OC(n2ccc(=O)[nH]c2=O)C(OS(C)(=O)=O)C1OS(C)(=O)=O (configuration not stated) | nt | 9.2
CCOc1ccc2c(c1)C(=NN=C(N)N)c1cc(OCC)ccc1-2 | nt | -0.53
COc1ccc(CNC(=O)COC(=O)Cc2n[nH]c(=O)c3ccccc23)cc1 | 0.1 | nt
COc1cc(/C=N/OC(=O)c2ccc(Cl)cc2)cc(OC)c1OC | nt | -0.25
C=C(C)COc1cc(O)c2c(=O)cc(-c3ccccc3)oc2c1 | -0.15 | 0.71
FC(F)(F)c1ccc(-c2nc(-c3ccccn3)ncc2-c2ccncn2)cc1 | nt | -0.68
COC(=O)c1cc2oc3ccccc3c2n1CC(=O)NCCC1=CCCCC1 | 1.2 | 0.1
NC(=O)c1cc(-c2ccc(Cl)cc2)no1 | -0.8 | -0.42
COC(=O)C1=C(C)NC(C)=C(C(=O)OCCN(C)Cc2ccccc2)C1c1cccc([N+](=O)[O-])c1 (configuration not stated) | 0.3 | -0.82&0.51
CSC1=NC=C(C#N)C2=NC(c3ccc(N(C)C)cc3)NN12 (configuration not stated) | nt | 0.3
Cc1cc(C)cc(NC2=NS(=O)(=O)c3ccccc32)c1 | -1 | 0.39
CC(C)Nc1nc(NC(C)C)nc(Oc2ccc(/C=N/O)cc2)n1 | 0.55 | -0.03
Cc1ccc(-c2cc(C(F)F)nc(NC3CCCCC3)n2)cc1 | 1.1 | 29
COCC(C)NS(=O)(=O)c1ccc(Cl)cc1Cl (configuration not stated) | nt | 0.36
C=C(C)c1nc2cc(OC)c(OC)cc2c(=O)o1 | 0.1 | nt
O=C1C(c2nc3ccccc3[nH]2)=C(O)c2ccccc21 | -0.1 | nt
Cc1n[nH]c(C)c1NC(=O)CSc1nnc(-c2ccoc2C)n1-c1ccccc1 | -0.75 | nt
Cc1cccc(C(=O)NC2CCN(CC(=O)N3CCOCC3)CC2)c1 | -1 | nt
O=C1OC([N+](=O)[O-])Cc2ccccc21 (configuration not stated) | nt | -1.7
CN1C(=O)/C(=C/C=C2\SCCN2C)SC1=S | 3 | -0.55
O=C(CCc1c[nH]c2ccccc12)N(Cc1cccnc1)c1ccc2c(c1)OCO2 | -0.25 | nt
CC(C)(C)c1n[nH]c(C(C)(C)C)c1Cc1c(F)cccc1Cl | -0.1 | 0.22
C1=CC2CC1CC2CN1CCN(Cc2cccnc2)CC1 (configuration not stated) | -0.25 | -1.4
CCOc1ccccc1NC(=O)c1c(NCc2ccc(OC)c(OC)c2OC)sc2c1CCCCC2 | nt | -0.47
N#Cc1nc(-c2ccccc2)oc1NCCCn1ccnc1 | -0.4 | nt
O/N=C1\CCc2ccccc2\C1=N/O | -1.2 | nt
COc1ccc(-c2c[n+](CC(=O)c3ccccc3)c3n2CCCCC3)cc1 | nt | -0.05
CC(=O)Oc1ccc(N2C(=O)C3C4C=CC(CC4)C3C2=O)cc1 (configuration not stated) | nt | 0.29
Cc1nc(-c2ccc(Cl)cc2)c(C)[nH]1 | nt | 1
Cc1cc(Oc2ccc(NS(=O)(=O)c3cccc4cccnc34)cn2)cc(C)c1Cl | nt | -0.2
Cc1cc(=O)[nH]c(SC(C)C(=O)Nc2ccccc2)n1 (configuration not stated) | -0.25 | nt
O=C(CC(CC(=O)c1cccs1)c1ccccc1)c1ccccc1 (configuration not stated) | 2.2 | -0.56
Cc1c(C#N)c2nc3ccccc3n2c(=O)/c1=C/NN1C(=O)CNC1=S | 1 | 13
Cc1cc(=O)oc2c3c(ccc12)OCN(c1ccc(F)cc1)C3 | nt | 57
NC1=NC(=O)C(CC(=O)Nc2cccc(C(=O)Nc3ccc4c(c3)OCCO4)c2)S1 (configuration not stated) | -0.55 | nt
COc1ccc(NC(=O)C2CCOC(C)(C)C2)cc1 (configuration not stated) | -0.2 | -0.51
CN(C)C(=O)Cn1c(=O)oc2ccccc21 | -0.85 | 0.17
O=C(N/N=C/c1ccco1)C1CCN(S(=O)(=O)c2ccc(Cl)cc2)CC1 | nt | -0.52
Cc1cc(C)cc(/C=N/NC(=O)c2ccccc2CCc2ccccc2)c1 | nt | -0.49
O=C(OCCOc1ccccc1)c1ccccc1C(=O)N1CCN(c2ccc(F)cc2)CC1 | 0.25 | nt
O=C1CCCCC1CN1CCCCC1 (configuration not stated) | -0.15 | -0.49
Cc1ccc2c(c1)-c1c(ssc1=S)C(C)(C)N2C(=O)c1ccncc1 | 1.5 | -1.7
Clc1ccccc1C1N(Cc2ccccc2)CCN1Cc1ccccc1 | 0.15 | -0.47
O=C1C(=O)N(c2nccs2)C(c2cccc(Br)c2)/C1=C(/O)c1ccc(F)cc1 (configuration not stated) | nt | -0.56
CC1(C)N=C2C(=N)C=CC=C2N1O | -0.15 | -1.6
Cc1cc(C)n2cc(CSC3=NCCS3)nc2n1 | -1.1 | nt
CCC(=O)N1CCN(C(=O)CC)C1c1ccccc1 | 0.45 | nt
Cc1cc(-c2onc(C)c2COC(=O)N(C)C2CCN(Cc3cc4c(cc3Cl)OCO4)C2)no1 (configuration not stated) | nt | 0.045
C=CC1CN2CCC1C(C(O)c1ccnc3ccc(OC)cc13)C2 (configuration not stated) | 1.4 | 63
CCc1ccc(NC(=S)NC(=O)c2cccs2)cc1 | -0.5 | -0.55
CC(Oc1cccc2ccccc12)C(=O)NN (configuration not stated) | 0.35 | 0.35
CCSc1nnc2c(n1)OC(c1cc(O)ccc1Br)Nc1ccccc1-2 (configuration not stated) | 0.05 | 0.5
C=CCn1cnc2c(c1=O)c1nc3ccccc3nc1n2-c1cccc(Br)c1 | -0.25 | 2

(next part)
SMILES | AID504770 | CapD inh
COC(=O)c1cn(C(C)C(=O)NCc2ccco2)c2ccccc12 (configuration not stated) | 0.95 | nt
CN(C)c1ccc(C(=O)N/N=C/c2cc(Cl)cc(Cl)c2O)cc1 | nt | 0.86
N#CC1=C(NC(=S)NC(=O)c2ccccc2)c2ccccc2CC12CCCC2 | nt | -0.23
COc1ccc(-c2nnc(NCc3nc4ccccc4[nH]3)c3ccccc23)cc1 | nt | 3
CC(NC(=O)OCCc1cccc(Cl)c1)C(=O)Nc1ccc2ccccc2c1 (configuration not stated) | nt | -0.88
Cn1c(CSc2cccs2)nnc1SCC(=O)c1ccccc1 | -0.25 | -0.17
C=C1SC(Nc2cccc(OC)c2)=NC1(C)C | nt | 0.24
CCN(C(=O)C(C)Nc1ccc(OC)cc1OC)C1CCCCC1 (configuration not stated) | -0.3 | nt
CC(C)=NNC(=O)c1cccn1C | 0.85 | 0.59
COc1ccc(-c2csc3ncnc(-n4nc(C)cc4N)c23)cc1 | -1.1 | -0.36
O=C(OCn1nnc2ccccc2c1=O)C1CC(O)CN1S(=O)(=O)c1ccc(Cl)cc1 (configuration not stated) | -0.4 | nt
Cc1cc(C(C)(C)C)ccc1OCC(N)=O | 1 | 0.11
O=C(CN1CCCC1)OCCCc1ccccc1 | -0.7 | -0.075
O=c1c(-c2ccon2)c(O)c2ccccc2n1-c1ccccc1 | 1.3 | 0.98
COC(=O)CC1=C(C(=O)OC)C2(C(=O)Nc3ccccc32)C(C(=O)OC)=C(N)O1 (configuration not stated) | -0.8 | -0.89
Cc1cc(=O)n(CC(=O)N2CCN(Cc3ccc4c(c3)OCO4)CC2)c2c1c(C)nn2-c1ccccc1 | 0.1 | 0.4
COc1ccccc1NC(=O)c1ccncc1 | 0.25 | 0.24
C1=C(c2c[nH]c3ccccc23)CCN(Cc2ccccc2)C1 | -0.1 | 0.86
O=C(O)CCC(=O)N1CC(=O)Nc2ccc(Br)cc2C1c1ccccc1 (configuration not stated) | -0.35 | -0.96
CC1CCCCC1NC(=O)COC(=O)c1cc(=O)c2ccccc2o1 (configuration not stated) | 1.1 | nt
O=C(N/N=C/C1=C(Sc2nc3ccccc3o2)CCCC1)C1COc2ccccc2O1 (configuration not stated) | -0.5 | nt
CC(C)c1ccc(C2/C(=C(\O)c3ccc(Cl)cc3)C(=O)C(=O)N2CCCN2CCOCC2)cc1 (configuration not stated) | nt | -0.075
O=C1CCCC(O)=C1C=Nc1ccccc1 | 0 | -2.8
CC(N=C1CC(C)(C)CC(=O)/C1=C(O)/C=C/c1ccccc1)C(=O)O (configuration not stated) | -0.8 | -2.9
CCCCn1nc(C(=O)Nc2ccccc2)c2ccccc2c1=O | -0.1 | nt
CC(Sc1nnc(-c2ccccc2Br)o1)C(=O)NC1(C#N)CCCCC1 (configuration not stated) | 0 | nt
CCc1cc2c(-c3ccccc3)cc(=O)oc2cc1O | 0.2 | 2.6
CC(Sc1nnnn1-c1ccccc1)C(=O)Nc1nccs1 (configuration not stated) | -0.45 | -0.1
CSC(N)=Nc1ccc(Cl)cc1 | -2.5*! | -0.14&-0.11
c1ccc(Cn2nnnc2C(c2cccnc2)N2CCN(c3ccccc3)CC2)cc1 (configuration not stated) | -2 | nt
O=C(O)CCN1C(=O)/C(=C/c2ccc(Br)cc2)SC1=S | nt | 0.47
Clc1ccc(-c2nnc(NCCN3CCCC3)c3ccccc23)cc1 | nt | -0.36
COc1cc(C2C3=C(CC(C)(C)CC3=O)N(c3ccc([N+](=O)[O-])cc3C)C(=N)/C2=C(/O)c2ccccc2)cc(OC)c1OC (configuration not stated) | nt | 0.085
N#Cc1c(/N=c2\oc3ccc(Br)cc3cc2C(N)=O)sc2c1CCCC2 | nt | -0.085
CC(C)(C)CC(C)(C)c1ccc(OCOCCOCCO)c(Cc2cc(C(C)(C)CC(C)(C)C)cc(Cc3cc(C(C)(C)CC(C)(C)C)ccc3OCOCCOCCO)c2OCOCCOCCO)c1 | nt | -0.17
O=C(NC(=O)N(Cc1ccccc1)C1CC2CCC1C2)c1c(Cl)cccc1Cl (configuration not stated) | -0.4 | -0.95
Cc1ccc(NC(=O)c2cc(-c3cccs3)nc3ccccc23)nc1 | -0.35 | 1.1
C/C(=N\NC(=O)COc1cccc(Br)c1)c1ccco1 | -0.5 | nt
Cc1nc2ccc(NC(=O)NC(=O)c3ccccc3Cl)cc2o1 | 1 | -0.66
O=C(Nc1ccc2c(c1)C(=O)NC2=O)C1=COCCO1 | -0.5 | nt
CN1CN2C(=O)N3CN(C)CN4C(=O)N(C1)C2C34 (configuration not stated) | 0.35 | nt
Cc1ccc(S(=O)(=O)NC(=O)NCC2CCN(C(=O)OC(C)(C)C)CC2)cc1 | 0.45 | 0.39
CCCN1CC=C2C(C#N)=C(N)C(C#N)(C#N)C(c3ccc(F)cc3F)C2C1 (configuration not stated) | 0.15 | nt
CC1CC(C)CC(S(=O)(=O)N2CCC(C(=O)O)CC2)C1 (configuration not stated) | 2.2 | -0.49
COc1nc2c(c(-c3ccc[nH]3)c1C#N)Cc1ccccc1-2 | 0.4 | 12

16 consecutive records from above, for reference:
SMILES | AID504770 | CapD inh
CCc1cc2c(-c3ccccc3)cc(=O)oc2cc1O | 0.2 | 2.6
CC(Sc1nnnn1-c1ccccc1)C(=O)Nc1nccs1 (configuration not stated) | -0.45 | -0.1
CSC(N)=Nc1ccc(Cl)cc1 | -2.5*! | -0.14&-0.11
c1ccc(Cn2nnnc2C(c2cccnc2)N2CCN(c3ccccc3)CC2)cc1 (configuration not stated) | -2 | nt
O=C(O)CCN1C(=O)/C(=C/c2ccc(Br)cc2)SC1=S | nt | 0.47
Clc1ccc(-c2nnc(NCCN3CCCC3)c3ccccc23)cc1 | nt | -0.36
COc1cc(C2C3=C(CC(C)(C)CC3=O)N(c3ccc([N+](=O)[O-])cc3C)C(=N)/C2=C(/O)c2ccccc2)cc(OC)c1OC (configuration not stated) | nt | 0.085
N#Cc1c(/N=c2\oc3ccc(Br)cc3cc2C(N)=O)sc2c1CCCC2 | nt | -0.085
CC(C)(C)CC(C)(C)c1ccc(OCOCCOCCO)c(Cc2cc(C(C)(C)CC(C)(C)C)cc(Cc3cc(C(C)(C)CC(C)(C)C)ccc3OCOCCOCCO)c2OCOCCOCCO)c1 | nt | -0.17
O=C(NC(=O)N(Cc1ccccc1)C1CC2CCC1C2)c1c(Cl)cccc1Cl (configuration not stated) | -0.4 | -0.95
Cc1ccc(NC(=O)c2cc(-c3cccs3)nc3ccccc23)nc1 | -0.35 | 1.1
C/C(=N\NC(=O)COc1cccc(Br)c1)c1ccco1 | -0.5 | nt
Cc1nc2ccc(NC(=O)NC(=O)c3ccccc3Cl)cc2o1 | 1 | -0.66
O=C(Nc1ccc2c(c1)C(=O)NC2=O)C1=COCCO1 | -0.5 | nt
CN1CN2C(=O)N3CN(C)CN4C(=O)N(C1)C2C34 (configuration not stated) | 0.35 | nt
Cc1ccc(S(=O)(=O)NC(=O)NCC2CCN(C(=O)OC(C)(C)C)CC2)cc1 | 0.45 | 0.39

Carrying on:
SMILES | AID504770 | CapD inh
COc1cc([C@@H]2[C@@H](C(=O)c3ccccc3)N3c4ccc5ccccc5c4C=C[C@@H]3C2(C#N)C#N)cc(OC)c1OC | nt | 9.9
O=C1S/C(=C/c2ccccc2F)C(=O)N1CNc1cccc(Br)c1 | nt | -0.58
CCN1C(=O)c2cccc3c(S(=O)(=O)N4CCC(C)CC4)ccc1c23 | 1.9 | nt
CCS(=O)(=O)N1CCNCC1 | 0.05 | nt
CC(=O)Oc1ccc2c(=O)c(-c3ccccc3C)c(C)oc2c1C | -0.15 | -0.095
Cc1ccccc1COc1ccc2oc(-c3ccco3)cc(=O)c2c1 | 1.4 | 6.3
N#Cc1cc(-c2nc(-c3ccccc3)cs2)c(N)nc1SCC(=O)c1ccc[nH]1 | -0.55 | nt

Screening data (PubChem BioAssay)
